High-throughput results from PubChem.
Ba CapD inh: CapD enzyme inhibition | purified CapD enzyme, fluorescence intensity read-out; active compounds read low; some hits fall short of the stated cut | z-score (no concentration beside the values) | actives 0.23% (n = 140,000);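 active = z-score under -4 in either of two replicates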;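 also: stock transfer was 100 nL into about 40 µL; score is relative to mean and spread of the plate; one replicate is shown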
AID504770: growth inhibitors of E. coli YBA685 in a screen for V. cholerae RctB (chromosome II replication) inhibitors | z-score (no concentration beside the values) | E. coli YBA685 rctB-dependent plasmid, OD600 growth, 3 h; active compounds read low | actives 0.27% (n = 130,000);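 active = z-score under -2 on both plates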;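 also: wells of about 30 µL received 100 nL stock; score is relative to mean and SD of the test wells; the first replicate is given; strong numbers were not always called active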
* hit, by the source's call; & = joins results of further samples.

`CC(NC(=O)C12CC3CC(CC(C3)C1)C2)C(=O)N1CCOCC1` (stereo not drawn) gave Ba CapD inh 0.32 and AID504770 1.8.
CC(C)(CNc1nc2cc3c(cc2nc1NS(=O)(=O)c1ccccc1)OCCO3)N1CCOCC1 was read as AID504770 2.15.
`CCOC(=O)c1cc(C)nn1C(=O)c1ccccc1Cl` gave Ba CapD inh -0.32 and AID504770 -0.8.
O=S(=O)(NCCOCCO)c1ccc(Cl)cc1 was read as Ba CapD inh 0.515.
Cc1ccc(N)cc1CN1CCCC1=O was read as Ba CapD inh 0.13 and AID504770 1.25.
`Cc1cc(Br)cc(C)c1OCCCN(C)C` gave AID504770 0.5.
Screening S=C(c1ccccc1)N1CCSCC1 returned Ba CapD inh -0.59 and AID504770 1.3.
C=CC1(C)OC(=O)N(c2cc(Cl)cc(Cl)c2)C1=O (stereo not drawn) was read as AID504770 1.7.
CCOC(=O)c1cc(-c2ccc(F)cc2)n(CC(=O)NN2CCOCC2)c1C was read as Ba CapD inh 0.19 and AID504770 0.35.
For Cc1nc(N2CCCCC2)c2c(C)c(C(=O)N3CCC(C(N)=O)(N4CCCCC4)CC3)sc2n1 the results were Ba CapD inh 0.285.
`COC(=O)c1c(NC(=O)c2ccc(Cl)s2)sc2c1CCN(C(C)=O)C2` gave Ba CapD inh -0.035 and AID504770 0.7.
For CCOC(=O)N1CCN(C(=O)CNC(=O)c2ccc(Br)cc2)CC1 the results were Ba CapD inh 0.52 and AID504770 -0.7.
Screening CCN(CC)C(=O)CCc1nc(CN2CCN(C(=O)c3cc(-c4cccs4)on3)CC2)no1 returned Ba CapD inh 0.39 and AID504770 -0.5.
For Nc1cc(=O)[nH]c(=O)n1CCO the results were AID504770 -0.35.
COc1ccccc1C1C(C#N)=C(C(=C=[N-])C#N)NC(O)(C2CC2)C1[n+]1ccc(C)cc1 (stereo not drawn) was read as Ba CapD inh 6.12.
O=C(NCC1COc2ccccc2O1)c1cc2ccccc2o1 (stereo not drawn) was read as Ba CapD inh 1.12 and AID504770 -0.65.
CS(=O)(=O)c1ccc(-c2csc(-c3ccc4c(c3)OCCO4)n2)cc1 was read as Ba CapD inh 1.44 and AID504770 0.2.
CC(C)(C)/C=C(\C#N)C(C)(C)C was read as Ba CapD inh 0.26 and AID504770 1.7.
`Cc1cn2cc(-c3cccc(Cl)c3)nc2s1` gave Ba CapD inh 0.43 and AID504770 -0.7.
For COc1ccc(/C=C/C(=O)C2(O)CCCCC2)cc1OC the results were Ba CapD inh -4.51* and AID504770 0.1.

Next section, starting with the last 6 of the part before.
COc1ccccc1C1C(C#N)=C(C(=C=[N-])C#N)NC(O)(C2CC2)C1[n+]1ccc(C)cc1 (stereo not drawn) was read as Ba CapD inh 6.12.
O=C(NCC1COc2ccccc2O1)c1cc2ccccc2o1 (stereo not drawn) was read as Ba CapD inh 1.12 and AID504770 -0.65.
CS(=O)(=O)c1ccc(-c2csc(-c3ccc4c(c3)OCCO4)n2)cc1 was read as Ba CapD inh 1.44 and AID504770 0.2.
CC(C)(C)/C=C(\C#N)C(C)(C)C was read as Ba CapD inh 0.26 and AID504770 1.7.
`Cc1cn2cc(-c3cccc(Cl)c3)nc2s1` gave Ba CapD inh 0.43 and AID504770 -0.7.
For COc1ccc(/C=C/C(=O)C2(O)CCCCC2)cc1OC the results were Ba CapD inh -4.51* and AID504770 0.1.
`CCCS(=O)(=O)c1c(S(=O)(=O)CCC)c2cc(-c3ccncc3)ccn2c1C(=O)N/N=C/c1ccc(OC)c(OC)c1` gave Ba CapD inh -0.21.
For N#Cc1cc2c([nH]c1=O)CCCC2=O the results were Ba CapD inh 7.95.
`CN1CCN(CCCNC(=O)Cn2ncc3c4ccccc4n(C)c3c2=O)CC1` gave Ba CapD inh 56.1 and AID504770 -1.
For C=CCN1c2ccccc2C(C)(C)C12C=Cc1c(ccc3ccccc13)O2 (stereo not drawn) the results were Ba CapD inh -0.445.
O=C(NCc1ccco1)c1ccc(Cl)c(NS(=O)(=O)c2ccc(F)cc2)c1 was read as AID504770 1.95.
`O=c1oc2ccccc2n1CO` gave Ba CapD inh -0.42 and AID504770 -0.5.
`CN(C)C1(c2nnnn2-c2cccc(Cl)c2)CCCCC1` gave Ba CapD inh -0.35.
Cc1nc2ncnn2c(C)c1CCC(=O)N(C)c1ccccc1 was read as Ba CapD inh -0.38 and AID504770 0.4.
Screening O=C(CN1Cc2ccccc2C1=O)Nc1ccc(Br)cc1F returned Ba CapD inh -0.88 and AID504770 1.8.
Screening CC(=O)NC(Sc1ccc(Cl)cc1)C(=O)c1ccccc1 (stereo not drawn) returned Ba CapD inh -0.42 and AID504770 -1.2.
Cc1[nH]n(-c2ccccc2)c(=O)c1/C=N/Nc1nnc(C)c(=O)[nH]1 was read as Ba CapD inh -0.4 and AID504770 -1.6.
Screening COc1nc(Nc2ccccc2)nc(OCC(F)(F)F)n1 returned Ba CapD inh -0.085 and AID504770 1.25.
O=C(NCc1cccs1)c1nn2c(C(F)(F)F)cc(-c3ccco3)nc2c1Br was read as Ba CapD inh 0.07.
c1cc2c(cc1C1CCCCC1)c1c3n2CCCNC3CCC1 (stereo not drawn) was read as Ba CapD inh 0.4 and AID504770 -0.5.
`CCCCCn1c(CO)nc2ccccc21` gave AID504770 -0.35.
`CCN1CCCC1CNC(=O)c1cc2c(=O)n(C)c3ccccc3c2n1C` (stereo not drawn) gave Ba CapD inh -2.69 and AID504770 -0.4.
Screening COC(=O)c1ccccc1S(=O)(=O)N1CCC(C(=O)OCC(=O)NC2CCCCC2C)CC1 (stereo not drawn) returned AID504770 -0.75.
Screening CN(CC1COc2ccccc2O1)c1nc(-c2cccnc2)nc2ccccc12 (stereo not drawn) returned AID504770 -1.65.
CCN(CC(=O)Nc1ccccc1C(F)(F)F)CC(=O)NC1CC1 was read as AID504770 -0.3.
CC(=O)N1CCC(N(C(=O)c2ccccc2)c2ccc3c(c2)CCN3C(C)=O)CC1 was read as Ba CapD inh 0.64.

Already shown: an excerpt of the list.
`CCCS(=O)(=O)c1c(S(=O)(=O)CCC)c2cc(-c3ccncc3)ccn2c1C(=O)N/N=C/c1ccc(OC)c(OC)c1` gave Ba CapD inh -0.21.
For N#Cc1cc2c([nH]c1=O)CCCC2=O the results were Ba CapD inh 7.95.
`CN1CCN(CCCNC(=O)Cn2ncc3c4ccccc4n(C)c3c2=O)CC1` gave Ba CapD inh 56.1 and AID504770 -1.
For C=CCN1c2ccccc2C(C)(C)C12C=Cc1c(ccc3ccccc13)O2 (stereo not drawn) the results were Ba CapD inh -0.445.

More entries:
CC(C)(C)C(=O)N(Cc1cccnc1)Cc1cccs1 was read as Ba CapD inh -0.505 and AID504770 -0.7.
C=CCN(CC=C)C(=O)/C=C/c1ccccc1 was read as Ba CapD inh 0.135 and AID504770 -0.3.
Screening COc1ccc(N(CC(O)CN(CC(C)C)CC(C)C)S(=O)(=O)c2ccc(C)cc2)cc1 (stereo not drawn) returned Ba CapD inh -0.685.
For COc1ccccc1NC(=O)c1ccc(-n2cccn2)cc1 the results were Ba CapD inh -0.685 and AID504770 -0.7.
For CNCc1ccc2c(c1)n(C)c(=O)n2C the results were Ba CapD inh -0.395 and AID504770 -0.25.
For CC(C)CCn1c(=O)c2ccccc2n2c(COC(=O)c3cc(F)cc(F)c3)nnc12 the results were AID504770 -0.9.
`CCCN1C(=O)/C(=N\OCC(=O)NCCC2=CCCCC2)c2ccccc21` gave AID504770 -0.1.
For O=C(O)CSCC(=O)N1CCN(c2ncc(C(F)(F)F)cc2Cl)CC1 the results were Ba CapD inh -0.735.
CCCC(=O)Nc1cc(C(=O)N2CCC3(CC2)OCCO3)ccc1S(=O)(=O)c1ccc(C)cc1 was read as Ba CapD inh 1.01 and AID504770 -0.5.
For CO/N=C/C(C)C(=O)c1ccc2c(Br)c(OC)ccc2c1 (stereo not drawn) the results were Ba CapD inh 4.8.
`CC(c1ccccc1)N1Cc2c(oc3ccccc3c2=O)N(C(=O)OCc2ccccc2)C1` (stereo not drawn) gave Ba CapD inh 47.8 and AID504770 1.
For COc1ccccc1-n1cnnc1SCC#N the results were AID504770 0.55.
For O=C(NCc1ccccc1)c1cc2sccc2nc1C(F)(F)F the results were Ba CapD inh -0.2.
For CC(=O)Nc1ccc2nc(NC(=O)CCc3ccccc3)sc2c1 the results were Ba CapD inh -0.085 and AID504770 -1.
`Cc1ccc2c(c1)C(c1ccccc1)CC(C)N2C(=O)c1ccccc1F` (stereo not drawn) gave Ba CapD inh -0.86 and AID504770 -0.75.
For CC(C)NCC(O)COc1ccc(CC(N)=O)cc1 (stereo not drawn) the results were Ba CapD inh -0.025&-2.89 and AID504770 -0.3.
Screening Cc1cc(C)c(S(=O)(=O)Nc2ncn[nH]2)cc1C returned AID504770 1.45.
For Cc1ccnc2nc(C(=O)Nc3ccc(N4CCOCC4)cc3)nn12 the results were AID504770 -0.55.
`O=C(COCc1cc(-c2ccc3c(c2)OCO3)on1)N1CCN(c2ccc(F)cc2)CC1` gave Ba CapD inh 0.385 and AID504770 -0.6.
Screening O=C(CN1CCN(S(=O)(=O)c2ccccc2)CC1)NC(=O)NC1CCCCC1 returned AID504770 1.6.
`CC(C)c1cc(=O)oc2cc(O)ccc12` gave AID504770 -0.3.
O=C1Nc2ccccc2N=C(c2ccccc2)c2ccccc21 was read as Ba CapD inh -0.065.
`Clc1cccc(Oc2ncnc3c2oc2ccccc23)c1` gave Ba CapD inh 0.535 and AID504770 0.95.
`O=[N+]([O-])c1cc(S(=O)(=O)c2ccccc2)cs1` gave Ba CapD inh -0.095.
CN1CCN(Cc2cn[nH]c2-c2ccccc2)CC1 was read as Ba CapD inh 0.06&0.84 and AID504770 0.95&-0.2.
`COc1ccc(OC)c(NC(=O)c2nnn(CCc3ccccc3)c2N)c1` gave Ba CapD inh 0.165 and AID504770 -0.5.
Screening O=C(NCc1ccc(F)cc1)c1nn2c(C(F)(F)F)cc(-c3ccco3)nc2c1Cl returned Ba CapD inh 0.105.
For COC(=O)c1ccc(Nc2ccccc2)cc1 the results were Ba CapD inh 0.48 and AID504770 0.45.
`CC1Cc2ccccc2N1C(=O)CCn1c(=O)oc2ccccc21` (stereo not drawn) gave Ba CapD inh 0.325 and AID504770 -1.65.
Screening Cc1ccc(-n2cnc3c2C(=O)c2ccccc2C3=O)cc1 returned Ba CapD inh 0.04 and AID504770 0.3.
For O=C(Nc1ccccc1I)C1CCCO1 (stereo not drawn) the results were Ba CapD inh -0.8 and AID504770 0.9.
CC1(C)NC(=O)N(CCC(=O)O)C1=O was read as AID504770 -0.3.
For C=CCn1c(SCC(=O)N2CCCC2)nc2cc(C(=O)NCC3CCCO3)ccc2c1=O (stereo not drawn) the results were Ba CapD inh -0.63 and AID504770 -0.75.
Screening CCN(Cc1c(O)ccc2c3c(c(=O)oc12)CCC3)C1CCCCC1 returned Ba CapD inh 42.8.
`CN(C(=O)c1noc2c1CSc1ccccc1-2)c1cccc(C(F)(F)F)c1` gave Ba CapD inh 0.18 and AID504770 0.85.
`Cn1c(-c2nonc2NC(=O)CSc2nc3ccccc3o2)nc2ccccc21` gave Ba CapD inh 0.15.
CC1=NNC(=O)/C1=C\c1cn(-c2ccccc2)nc1-c1ccc(F)cc1 was read as Ba CapD inh -1.27 and AID504770 0.4.
O=C1/C(=C/c2ccccc2)CN(Cc2ccccc2)C/C1=C\c1ccccc1 was read as Ba CapD inh -0.22.
CCOC(=O)N1CCC(n2c(SCC(=O)NCCc3ccc(S(N)(=O)=O)cc3)nc3ccccc3c2=O)CC1 was read as Ba CapD inh 0.97.
Screening NC(=O)NNc1ccccc1 returned Ba CapD inh 0.46.
Cc1ccc(CNC(=O)Cn2ccc(C(F)(F)F)n2)cc1 was read as AID504770 0.45.
Screening CCOc1ncccc1C(=O)OC(C)C(=O)Nc1ccccc1 (stereo not drawn) returned AID504770 -0.45.
`N#CC(C(=O)Nc1cccc(C(F)(F)F)c1)C(=S)Nc1ccccc1Cl` (stereo not drawn) gave Ba CapD inh 0.715 and AID504770 0.1.
`Cc1cc(C)nc(N2CCC(C(=O)NCCc3ccc(S(C)(=O)=O)cc3)CC2)n1` gave Ba CapD inh 0.43.
CCCOn1nnnc1-c1ccccc1 was read as Ba CapD inh 0.855 and AID504770 -0.25.
`CCOC(=O)CCN1C(=O)/C(=C\c2cccs2)SC1=S` gave Ba CapD inh 0.02 and AID504770 -0.35.
Screening NC(=O)C1CCN(CCC(=O)Nc2ccccc2)CC1 returned Ba CapD inh 0.695 and AID504770 0.
For C=CCSc1nc(N)c2c(C)c(C)sc2n1 the results were Ba CapD inh -0.535 and AID504770 0.55.
`COc1ccc(C2/C(=C(/O)c3ccccc3)C(=O)C(=O)N2CC(OC)OC)c(OC)c1` (stereo not drawn) gave AID504770 -0.1.
Screening Cc1nccn1S(=O)(=O)c1ccc(Cl)cc1Cl returned AID504770 -0.45.
For Cc1cc(I)ccc1N=Cc1nc(-c2ccc(Br)cc2)oc1O the results were Ba CapD inh -0.965.
O=c1[nH]c(-c2ccsc2)nc2sc3c(c12)CCC3 was read as Ba CapD inh 2.4 and AID504770 1.1.
`CCNc1nc(NCC)n2c(SCC3CN(Cc4ccccc4)CCO3)nnc2n1` (stereo not drawn) gave AID504770 -0.6.
`O=C(O)c1cccnc1Oc1ccccc1` gave Ba CapD inh -0.675.
`CC1(C)CC(=O)C2=C(C1)N(c1ccccc1)C(=O)CC2c1cccnc1` (stereo not drawn) gave Ba CapD inh 0.175 and AID504770 1.25.
CC(C)c1ccc(NC(=O)C2CCC(CNS(=O)(=O)c3cccc4nsnc34)CC2)cc1 (stereo not drawn) was read as Ba CapD inh -0.43 and AID504770 0.05.
For CCOc1ccc(C2=C(CN(C)C)C(c3ccc(F)cc3)c3ccccc3O2)cc1 (stereo not drawn) the results were Ba CapD inh -0.83 and AID504770 0.55.
For O=c1cc(N2CCc3ccccc32)[nH]c(=O)n1-c1ccccc1 the results were Ba CapD inh -0.4 and AID504770 -0.3.

Structural class: the entries above with a tert-butyl group.
CC(C)(C)/C=C(\C#N)C(C)(C)C was read as Ba CapD inh 0.26 and AID504770 1.7.
CC(C)(C)C(=O)N(Cc1cccnc1)Cc1cccs1 was read as Ba CapD inh -0.505 and AID504770 -0.7.
